LANA-nucl inh: LANA-nucleosome interaction inhibition. FITC-LANA1-23 / chicken nucleosome fluorescence polarization; hits give low values. z-score (test concentration not listed). 0.3% of 51,000 active;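 active = both repeat wells score below -2 in polarization z-score versus plate sample wells, excluding overly bright wells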;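 note: 100 nL library stock added to about 30 µL; numbers are from one replicate; some results filed as inactive read as strong as hits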
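Assay system: FITC-LANA peptide and chicken nucleosomes; input: 240 nM purified chicken nucleosomes (480 nM peptide binding sites), final; also added: 50 nM FITC-LANA1-23 probe; medium: TEN-BT buffer, pH 7.5; doses: pin-transferred compound, 100 nL; times: 10–45 min, room temperature; technique: fluorescence polarization; replication: duplicates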
BasE inh: inhibitors of Acinetobacter baumannii siderophore enzyme BasE; purified BasE, fluorescence polarization binding displacement; AID 485350; 0.1% of 84,000 active; inhibition, % (concentration not given with the values);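 active = both replicates above 25% with normal brightness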;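 note: 0% = negative plate control signal and 100% = positive plate control signal; stock transfer was 100 nL into about 30 µL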
* = called active by the depositor; & = joins results of further samples. These rows are one share of the data; the hit share may differ from the screen's.

For O=C(/C=C/c1ccc(Br)o1)OCCCn1c(=O)[nH]c2ccccc21 the results were BasE inh -2.9.
Screening O=C1N(CNc2ccccc2)CCN1CNc1ccccc1 returned BasE inh 1.8.
COc1ccc(NCC(O)COc2ccc(OC)cc2)cc1 (stereo not given) was read as LANA-nucl inh 0.12 and BasE inh 2.4.
Cc1ccc(N/C(N)=N/c2nc3c(c(=O)[nH]2)CCCC3)c(C)c1 was read as LANA-nucl inh 0.38 and BasE inh 4.6.
S=C1NC2(CCCC2)Nc2ccccc21 was read as LANA-nucl inh -0.29 and BasE inh 3.4.
Cc1cccc(NC(=S)NCCCN2CCOCC2)c1 was read as BasE inh 2.5&0.8.
`Brc1ccc(-n2nnnc2-c2cn[nH]c2-c2ccccc2)cc1` gave LANA-nucl inh 0.16 and BasE inh 3.2.
`Cc1cc(C)cc(-n2ncc3c(=O)[nH]cnc32)c1` gave BasE inh 3.4.
CCCC(=O)C1=C(N(C)c2ccccc2)CC(C)(C)CC1=O was read as LANA-nucl inh 0.18 and BasE inh 1.4.
For CNCc1ccc(-c2ccc(F)c(Cl)c2)o1 the results were LANA-nucl inh 2 and BasE inh -8.7.
`Cc1ccc2[nH]c(CNC(=O)C3CC3)cc2c1` gave LANA-nucl inh -1.
For O=C(CSCc1ccccc1)NCc1ccccc1 the results were BasE inh 0.1.
`Clc1ccc(CSc2nnc(Cc3cccs3)n2C2CC2)cc1Cl` gave BasE inh 0.9.
NC(=O)C[n+]1cccc(C(N)=O)c1 was read as LANA-nucl inh 0.47 and BasE inh -2.4.
Screening N#CCc1ccc(NC(=O)c2nccnc2C(=O)O)cc1 returned BasE inh 3.8.
For Cc1ccc(N/C(N)=N/c2nc(CSc3nnc(C)s3)cc(=O)[nH]2)c(C)c1 the results were LANA-nucl inh 0.66 and BasE inh 2.8.
For N#CCSc1nnc(CSc2nc3ccccc3s2)n1Cc1ccccc1 the results were BasE inh -2.5.
CCC(C)(C)n1c(=O)[nH]c2c(c1=O)CCC2 was read as BasE inh 1.1.
O=C1CNC(=O)N1CC(O)Cn1c2ccccc2c2ccccc21 (stereo not given) was read as LANA-nucl inh -0.29 and BasE inh 0.0.
CN(C)CCC(O)c1cc(Cl)sc1Cl (stereo not given) was read as LANA-nucl inh 0.47.
For CC(C)N(C(=O)C[n+]1ccc(/C=N/O)cc1)C(C)C the results were BasE inh 2.6.
CC(Sc1ccccn1)C(=O)Nc1ccc(S(N)(=O)=O)cc1 (stereo not given) was read as BasE inh 1.6.
For O=C(CC(=O)NN=C1CCCC1)NCc1ccccc1 the results were LANA-nucl inh 0.89 and BasE inh 2.3.
`CCn1c(=O)c(CCC(=O)NCCN2CCOCC2)c(C)c2c(C)nn(-c3ccccc3)c21` gave LANA-nucl inh -0.083 and BasE inh 0.8.
`CN(Cc1ccccc1)C(=O)CCC(=O)N1CC2CCCN2c2ccccc21` (stereo not given) gave LANA-nucl inh 0.28 and BasE inh 3.4.
`CCN(CCO)C(=O)CCN1C(=O)/C(=C/c2ccc(OC)c(OC)c2)SC1=S` gave BasE inh -2.0.
Screening CCN(Cc1ccccc1)C(=O)C1CC2CCCN2C12C(=O)Nc1ccccc12 (stereo not given) returned LANA-nucl inh -0.076 and BasE inh -2.5.
Cc1cc(C(=O)NN2C(=O)CSC2c2ccc(-n3ccnc3)cc2)c(C)o1 (stereo not given) was read as BasE inh 1.2.
CCOC(=O)/C(C#N)=C1/C=C(C)NC(c2ccccc2O)=N1 was read as LANA-nucl inh -0.76 and BasE inh 4.0.
CC1=C/C(=N\Nc2nc(C)cc(=O)[nH]2)CC(C)(C)C1 was read as BasE inh 0.0.
For Fc1cccc(Cl)c1-c1nnc2ccc(C(F)(F)F)cn12 the results were LANA-nucl inh -0.93 and BasE inh -0.7.
`Cc1cccc(C)c1OCc1nc2c3cnn(-c4nc5ccccc5s4)c3ncn2n1` gave LANA-nucl inh 1.6 and BasE inh -1.0.
C[N+]1(C)CCOC12CCCCC2 was read as LANA-nucl inh -0.3 and BasE inh 2.4.
Screening Clc1ccc(-c2noc3ncnc(Nc4ccccc4)c23)cc1 returned BasE inh 1.9.
COc1ccccc1N1CCN(C(=O)[C@H](C)N2CCN(c3nc4cc(Cl)ccc4s3)CC2)CC1 was read as LANA-nucl inh 0.35 and BasE inh -0.4.
For CCn1c(=O)c(=O)[nH]c2cc(C(=O)NCCSCc3ccco3)ccc21 the results were BasE inh -2.2.

The list goes on; the last 6 above are carried over.
For Fc1cccc(Cl)c1-c1nnc2ccc(C(F)(F)F)cn12 the results were LANA-nucl inh -0.93 and BasE inh -0.7.
`Cc1cccc(C)c1OCc1nc2c3cnn(-c4nc5ccccc5s4)c3ncn2n1` gave LANA-nucl inh 1.6 and BasE inh -1.0.
C[N+]1(C)CCOC12CCCCC2 was read as LANA-nucl inh -0.3 and BasE inh 2.4.
Screening Clc1ccc(-c2noc3ncnc(Nc4ccccc4)c23)cc1 returned BasE inh 1.9.
COc1ccccc1N1CCN(C(=O)[C@H](C)N2CCN(c3nc4cc(Cl)ccc4s3)CC2)CC1 was read as LANA-nucl inh 0.35 and BasE inh -0.4.
For CCn1c(=O)c(=O)[nH]c2cc(C(=O)NCCSCc3ccco3)ccc21 the results were BasE inh -2.2.
`CCOc1ccccc1-n1nnnc1SCC(=O)Nc1cc(C)ccc1C(=O)O` gave LANA-nucl inh -0.76 and BasE inh -2.3.
For O=C(NCCCn1ccnc1)c1nc(-c2ccc(C(F)(F)F)cc2)no1 the results were LANA-nucl inh -0.076 and BasE inh 1.0.
`CCN1CCN(Cc2ccc(NC(=O)Cn3ncc4c3-c3ccccc3OC4)cc2)CC1` gave LANA-nucl inh -1 and BasE inh -6.3.
For CN1CCCN(Cn2nc3ccccn3c2=S)CC1 the results were BasE inh 3.0.
`Cc1ccc(N2CC(C(=O)OCc3nc(N)nc(Nc4ccccc4C)n3)CC2=O)cc1` (stereo not given) gave BasE inh -0.6.
`CC(C)C(=O)c1cc2c(cc1N)OCCO2` gave LANA-nucl inh 0.52 and BasE inh 3.0.
For O=C(Cn1cnc(S(=O)(=O)N2CCCCC2)c1)NCc1ccco1 the results were LANA-nucl inh 0.06 and BasE inh 2.1.
COc1cc2c3nc4n(c(=O)c3n(CC(=O)NC3CCCC3)c2cc1OC)CCS4 was read as LANA-nucl inh -0.18 and BasE inh -1.5.
`c1cc(Nc2ncnc3sccc23)cc(-c2nnc3n2CCCCC3)c1` gave BasE inh 1.5.
Screening CC(=O)Nc1ccc(C(=O)CSc2nc3ccccc3n2C)cc1 returned LANA-nucl inh -0.39 and BasE inh -0.6.
`Cn1nnnc1SCC(=O)N1c2ccccc2Sc2ccccc21` gave BasE inh 1.6.
`CCOc1ccc2nc(S/C=C/C(=O)c3ccc(Cl)cc3)sc2c1` gave BasE inh 2.3.
`COc1cccc(CNC(=O)c2cccs2)c1` gave BasE inh -0.3.
`Cc1ccc(C)c(C(=O)OC2CCCCC2=O)c1` (stereo not given) gave BasE inh 1.0.
`O=c1[nH]c(CSC2CCCCC2)nc2ccccc12` gave LANA-nucl inh 0.46 and BasE inh 2.2.
Screening CC(C)C(NS(=O)(=O)c1ccc2c(c1)OCCCO2)C(=O)O (stereo not given) returned BasE inh -3.3.
For O=C(CCN=C1NS(=O)(=O)c2ccccc21)Nc1cccnc1 the results were BasE inh 3.1.
Screening CSc1ccccc1NC(=O)CN(C)C(=O)Cn1c(=O)oc2ccccc21 returned BasE inh 3.2.
For O=C(NCCSc1nnnn1-c1ccccc1)c1ccco1 the results were LANA-nucl inh 0.33 and BasE inh 0.5.
`COc1ccc(S(=O)(=O)N2Cc3ccccc3CC2C(=O)Nc2nccs2)cc1OC` (stereo not given) gave LANA-nucl inh -0.21 and BasE inh -0.6.
Screening O=C(O)CS(=O)(=O)c1ccccc1 returned LANA-nucl inh 2.3 and BasE inh -3.5.
Screening COC(=O)c1ccccc1Oc1ccc(NC(=O)c2ccccc2)cc1 returned LANA-nucl inh 0.11.
Screening CC1(C)Cc2c(c(=O)n(-c3ccccc3)c3ncnc(N)c23)CO1 returned BasE inh 0.1.
For CCSc1n[nH]c(C(F)(F)F)n1 the results were LANA-nucl inh 0.99 and BasE inh -1.4.
O=C(NCc1n[nH]c(=O)c2ccccc12)C1CC1 was read as LANA-nucl inh -0.0035 and BasE inh 1.1.
CNS(=O)(=O)c1cc(C(C)(C)C)cc(C)c1C was read as LANA-nucl inh 0.08 and BasE inh 2.0.
For CC1(C)Cc2cccc(Oc3ncnc4sccc34)c2O1 the results were BasE inh -5.1.
`O=C(NCC(F)(F)F)OCc1ccc(F)cc1` gave LANA-nucl inh -0.21 and BasE inh 1.7.
`COc1ccccc1NC(=S)NCc1cccn1C` gave LANA-nucl inh -0.17 and BasE inh -0.8.
Screening Cc1c(NC(C)C(=O)Nc2ccc(S(=O)(=O)N3CCOCC3)cc2)c(=O)n(-c2ccccc2)n1C (stereo not given) returned BasE inh 2.2.
`Cc1ccccc1OCC(=O)N(C)Cc1c(C)nn(C2CCS(=O)(=O)C2)c1C` (stereo not given) gave BasE inh 7.5.
COc1cc(C(=O)N2CCN(C(=O)C(Cc3cc(C)ccc3C)NC(C)=O)CC2)cc(OC)c1OC (stereo not given) was read as LANA-nucl inh 0.54 and BasE inh -1.4.
`CN1CCN(C(=O)CCC(=O)c2ccc(F)cc2)CC1` gave BasE inh -0.2.
O=S1(=O)CCC(N2C(=S)SC3CS(=O)(=O)CC32)C1 (stereo not given) was read as LANA-nucl inh -0.018 and BasE inh 0.1.
Cc1noc2nc(C(=O)NCCC3=CCCCC3)nc(N3CCOCC3)c12 was read as LANA-nucl inh -0.45 and BasE inh 1.1.
For COc1ccc(-c2cc(C(=O)N3CCCC3C(=O)O)c(C)o2)cc1OC (stereo not given) the results were LANA-nucl inh -0.55 and BasE inh 5.9.
`CC(=O)OC1=CSc2ccc(Br)c3cccc1c23` gave BasE inh -2.0.
Screening CCSC1=C(C#N)C2(CCCCC2)C(C#N)=C(N)N1 returned LANA-nucl inh 0.25 and BasE inh 1.0.
Screening CCc1nc(NCCN2CCOCC2)c(C#N)c2c1COC(C)(C)C2 returned LANA-nucl inh 0.17 and BasE inh 2.3.
For CC(C)CNP(=O)(OC1CC(C)CCC1C(C)C)c1ccccc1 (stereo not given) the results were BasE inh 2.0.
CC(C)c1cc(NCc2ccccn2)n2c(nc3ccccc32)c1C#N was read as LANA-nucl inh -0.053 and BasE inh 0.7.
For COc1cccc(NC(=O)c2nn(C)c3c2COc2ccccc2-3)c1 the results were LANA-nucl inh -1.8 and BasE inh 0.9.
CCOC(=O)/C=C1\NC(C)(C)Cc2cc(OC)c(OC)cc21 was read as LANA-nucl inh -0.4 and BasE inh 1.6.
Screening NC(=O)CCN(C1CCCCC1)S(=O)(=O)c1cccc2nsnc12 returned LANA-nucl inh 0.29 and BasE inh -1.5.
Cc1nnc(SCC(=O)N(c2ccccc2)c2ccccc2)nc1C was read as LANA-nucl inh 0.0065 and BasE inh 2.4.
For Cc1cc2nc(C)n(CC(=O)N(C)c3ccccc3)c2cc1C the results were LANA-nucl inh -0.42 and BasE inh 1.0.
CCc1c(C)n([O-])c2c([n+]1=O)CCCC2 was read as LANA-nucl inh 0.52 and BasE inh -1.2.
Screening O=C(c1cc(=O)[nH]c2ccccc12)N1CCc2ccccc2C1 returned BasE inh 0.5.

Ordered by formula weight (smallest number first): 5 of the compounds above.
Screening O=C(c1cc(=O)[nH]c2ccccc12)N1CCc2ccccc2C1 returned BasE inh 0.5.
CCOC(=O)/C=C1\NC(C)(C)Cc2cc(OC)c(OC)cc21 was read as LANA-nucl inh -0.4 and BasE inh 1.6.
For Cc1cc2nc(C)n(CC(=O)N(C)c3ccccc3)c2cc1C the results were LANA-nucl inh -0.42 and BasE inh 1.0.
Screening CCc1nc(NCCN2CCOCC2)c(C#N)c2c1COC(C)(C)C2 returned LANA-nucl inh 0.17 and BasE inh 2.3.
Screening NC(=O)CCN(C1CCCCC1)S(=O)(=O)c1cccc2nsnc12 returned LANA-nucl inh 0.29 and BasE inh -1.5.

The results go on:
C#CCn1c(=NC(=O)CSCC(=O)Nc2cc(C)on2)sc2ccccc21 was read as LANA-nucl inh 0.34 and BasE inh 0.8.
`CC1=CC(C)C(/C=N/n2cnnc2)C(C)C1` (stereo not given) gave BasE inh 1.9.
Cc1noc2ncnc(NC(C)(C)CCO)c12 was read as BasE inh -1.4.
Screening N#CCn1c2ccc(Cl)cc2c2nc3ccccc3nc21 returned LANA-nucl inh -0.49 and BasE inh -2.5.
`O=C(CNC(=O)c1ccc2ccccc2c1)OCn1nnc2ccccc2c1=O` gave BasE inh 0.8.
Screening O=c1[nH]sc2ccccc12 returned BasE inh 1.1.
`COC(=O)c1sc(=S)n(-c2ccc(C)cc2)c1N` gave LANA-nucl inh -0.23 and BasE inh -0.1.
CC1(C)S[C@@H]2[C@H](NC(=O)[C@H](N)c3ccccc3)C(=O)N2[C@H]1C(=O)O was read as LANA-nucl inh 0.51&0.18&-0.015&0.57 and BasE inh -2.9&-0.4.
Screening Cc1ccc(C)c(S(=O)(=O)NCc2ccc(C(=O)N3CCN(C)CC3)cc2)c1 returned LANA-nucl inh -0.098 and BasE inh -0.5.
`O=C(CSc1nnc(Cc2ccccc2)n1Cc1ccccc1)NCc1ccco1` gave LANA-nucl inh -0.23 and BasE inh -2.2.
Screening CCN1/C(=C\C=C2/C(=O)NC(=O)N(C)C2=O)Sc2ccccc21 returned LANA-nucl inh 1.1 and BasE inh -27.
For N#CC1(NC(=O)COC(=O)CSc2ccc(F)cc2)CCCCC1 the results were BasE inh -1.4.
`Cc1nc(NNC(=O)c2ccccc2)cc(-c2ccccc2)n1` gave LANA-nucl inh -0.4 and BasE inh -1.5.
Screening CC(=O)O/N=C1/SC(=Nc2ccc(Cl)cc2)C2=C1N(C)CC2 returned BasE inh -5.3.

Bioassay records (PubChem)
